Mtb betalactam – beta-lactam sensitization of Mtb H37Rv; 330,000 tested, 0.27% active; AID 434955; M. tuberculosis H37Rv growth with meropenem, percent inhibition; hits of this screen are not shown here; inhibition, % at 25 µM;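 active = about 74% or more and at least 40 points above the plate without the antibiotic, then above 30% in a dose series; inconclusive = first-round hits that could not be retested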;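 also: growth measured after seven days incubation then overnight dye step; 0% = bacteria only wells and 100% = bacteria with antibiotic; twin plates without the antibiotic show which effects depend on it; some results filed as inactive read as strong as hits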
YopH inh – blocks Yersinia enterocolitica YopH tyrosine phosphatase | fluorescence Ex485/Em525 | inhibition, %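 (about 10 µM by stock and volumes)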 | 140,000 tested, 0.16% active;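 active = inhibition of 50% or more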;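 also: controls were vehicle for no effect and minimum signal wells for full effect; inactives centre near -20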
RecA splice inh – blocks M. tuberculosis RecA intein splicing; cell-free RecA intein splicing, fluorescence; inhibition, %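 (about 9 µM by stock and volumes)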; 290,000 tested, 0.75% active; AID 2221; in the data active = inhibition above about 30%; inconclusive = no clear call, values can overlap the other calls;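 also: 0% = vehicle wells and 100% = reference inhibitor control wells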
Target sequence (P9WHJ3 whole entry, looked up, canonical isoform): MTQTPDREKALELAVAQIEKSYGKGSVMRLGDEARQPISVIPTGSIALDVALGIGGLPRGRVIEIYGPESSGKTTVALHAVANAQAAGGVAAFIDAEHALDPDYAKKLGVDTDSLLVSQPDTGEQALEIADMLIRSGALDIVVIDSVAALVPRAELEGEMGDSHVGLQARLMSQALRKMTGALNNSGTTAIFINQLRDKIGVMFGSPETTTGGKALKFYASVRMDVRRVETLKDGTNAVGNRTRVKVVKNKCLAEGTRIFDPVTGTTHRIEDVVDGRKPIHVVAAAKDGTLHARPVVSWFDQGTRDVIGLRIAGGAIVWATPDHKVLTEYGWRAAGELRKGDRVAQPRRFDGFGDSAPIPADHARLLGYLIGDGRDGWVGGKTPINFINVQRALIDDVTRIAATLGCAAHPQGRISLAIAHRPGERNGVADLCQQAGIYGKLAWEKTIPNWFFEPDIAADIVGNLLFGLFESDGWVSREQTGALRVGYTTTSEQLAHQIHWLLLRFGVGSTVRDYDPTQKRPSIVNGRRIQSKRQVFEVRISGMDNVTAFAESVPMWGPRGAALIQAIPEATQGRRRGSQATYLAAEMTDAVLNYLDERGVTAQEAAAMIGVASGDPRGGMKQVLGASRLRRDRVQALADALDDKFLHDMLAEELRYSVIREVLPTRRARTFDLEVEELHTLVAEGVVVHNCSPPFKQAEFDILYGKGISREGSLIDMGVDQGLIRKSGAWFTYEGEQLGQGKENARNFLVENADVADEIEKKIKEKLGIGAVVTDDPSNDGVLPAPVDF
Mtb growth – M. tuberculosis H37Rv growth inhibitors, H37Rv strain (AID 1626); M. tuberculosis H37Rv growth inhibition; higher % means a stronger effect; one-dose inhibition, % at 10 µM; IC50 in µM for titrated hits; 220,000 tested, 0.95% active;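 active = confirmed in a dose series; inconclusive = inhibition above 80% but not taken into the dose series; inactive = below 80% or under 30% at every dose of the series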;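 also: bacteria incubated seven days before Alamar blue readout; 0% = bacteria only wells and 100% = bacteria with antibiotic wells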
Arbovirus anti – arbovirus infection inhibition. arbovirus infection cell-based antiviral screen. inhibition, % at 10 µM. 200,000 tested, 0.37% active;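 active = inhibition from about 30%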;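 also: bluetongue infection of BSR cells; cell survival read as ATP light after 72 h; 0% = infected wells without compound and 100% = uninfected wells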
Arbovirus anti repeat – recorded beside Arbovirus anti, whose call it bears; inhibition, %; measured here: 10K subset replicate screen; many hits read low in the repeat;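 first of two repeat runs on a subset; 0% = infected and 100% = uninfected wells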
* = called active by the depositor.

For Cc1ccc(OCC(=O)Nc2c(C)ccc3nsnc23)cc1 the results were Mtb betalactam 0 and RecA splice inh 0.1.
`COc1ccc2[nH]cc(/C=C/C(=O)c3ccccc3)c2c1` gave Mtb betalactam 89, RecA splice inh 2.8 and Mtb growth 70%.
For S=c1sc2c(N3CCN(Cc4ccccc4)CC3)ncnc2n1-c1ccccc1 the results were Mtb betalactam -3, YopH inh -12, RecA splice inh 1.9, Mtb growth 1% and Arbovirus anti 0.
CCOc1cnc(-c2ccc(OC)cc2)o1 was read as Mtb betalactam -5, YopH inh -38, RecA splice inh 0.2, Mtb growth -2% and Arbovirus anti -4.
C=CCOc1ccc(C2/C(=C(/O)c3ccc4c(c3)CC(C)O4)C(=O)C(=O)N2CCCN2CCOCC2)cc1 (stereo unspecified) was read as Mtb betalactam -2 and RecA splice inh 2.1.
COC(=O)Cn1c(=NC(=O)CSCC(=O)Nc2cc(C)on2)sc2cc(C(=O)OC)ccc21 was read as Mtb betalactam -6, RecA splice inh -3.1, Mtb growth -4% and Arbovirus anti 0.
Screening C#Cc1ccc([C@@H]2C=C(C(=O)NC3CC3)O[C@H](OCc3ccc(CO)cc3)C2)cc1 returned Mtb betalactam -1, RecA splice inh 1.0 and Mtb growth -7%.
COc1cc(C)c(Cl)cc1S(=O)(=O)n1ccnc1 was read as Mtb betalactam -2, Mtb growth 3% and Arbovirus anti 5.
NC(=O)/C(N=Nc1ccccc1)=N/Nc1ccccc1 was read as Mtb betalactam 73 and RecA splice inh 1.7.
Screening CCn1c(=O)c2ccccc2n2c(SCC(N)=O)nnc12 returned Mtb betalactam -3 and RecA splice inh 1.0.
For CCc1noc(C)c1C(=O)Nc1ccc(C)c(S(=O)(=O)N2CCCCCC2)c1 the results were Mtb betalactam 0 and RecA splice inh 1.1.
Screening NC(=O)CSc1nnc(-c2ccoc2)o1 returned Mtb betalactam 1, YopH inh -8, RecA splice inh -0.4, Mtb growth -7% and Arbovirus anti -4.
Screening COc1ccc(C(=O)OCC(O)COC(=O)c2ccc(OC)cc2)cc1 returned Mtb betalactam 1 and RecA splice inh 1.7.
`COc1ccc(CC/C(C)=N\NC(N)=O)cc1` gave Mtb betalactam 5, YopH inh -43, RecA splice inh -0.4, Mtb growth 0% and Arbovirus anti 2.
`COc1ccc(F)cc1S(=O)(=O)n1cc(C)nc1-c1ccccc1` gave Mtb betalactam 1, YopH inh 11, RecA splice inh -2.1 and Mtb growth -1%.
For COc1ccc(/C=N/Nc2nc(Nc3ccccc3)nc(N3CCCCC3)n2)c(OC)c1 the results were Mtb betalactam 95, YopH inh -24, RecA splice inh -1.4, Mtb growth inconclusive and Arbovirus anti -8.
For Cc1cc(C)c(C(N)=O)c(NC(=O)Nc2ccccc2)n1 the results were Mtb betalactam 3, YopH inh -25, RecA splice inh -2.0, Mtb growth -7% and Arbovirus anti -1.
`Cc1ccc(OCCCN(C)C)c(Br)c1` gave Mtb betalactam -4, YopH inh -3, RecA splice inh 0.3, Mtb growth -9%, Arbovirus anti -6 and Arbovirus anti repeat 1.
`COc1ccc(C(=O)OCC(=O)NCCN2C(=O)CSC2=O)cc1` gave Mtb betalactam -13, RecA splice inh 2.4, Mtb growth -1% and Arbovirus anti 11.
Screening Cc1cccc(NS(=O)(=O)c2cc3c(cc2C)NC(=O)CO3)c1 returned Mtb betalactam 4 and RecA splice inh 0.8.
Cc1ccc(/C=N/NC(=O)c2cc(C)oc2C)cc1 was read as Mtb betalactam 2, RecA splice inh 1.3 and Mtb growth -1%.
CC(=O)Nc1ccc2c(c1)nc(CCNC(=O)c1ccco1)n2C was read as Mtb betalactam -14 and RecA splice inh 0.6.
O=C1NN(c2ccccc2)C(=O)/C1=C/c1ccc(Sc2cccc3ccccc23)o1 was read as Mtb betalactam 25, YopH inh -32, RecA splice inh -0.5, Mtb growth 25% and Arbovirus anti -42.
Screening O=C1NCCn2ccc(=O)cc21 returned Mtb betalactam -1 and RecA splice inh -1.6.
`COc1ccc(C(=O)N2CCCc3ccccc32)cc1` gave Mtb betalactam -4, YopH inh 26, RecA splice inh 5.7, Mtb growth 1% and Arbovirus anti -8.
CCC(c1nnnn1C(C)C)N1CCN(C2CCCC2)CC1 (stereo unspecified) was read as Mtb betalactam -5, YopH inh -25, RecA splice inh -1.6, Mtb growth -4% and Arbovirus anti 2.
Screening NC(CC(=O)O)C1CCCCC1 (stereo unspecified) returned Mtb betalactam -5, RecA splice inh -1.0, Mtb growth 1% and Arbovirus anti 0.
CCOc1ccc(C2C(C(=O)Nc3cc(C)on3)c3ccccc3C(=O)N2CCN2CCOCC2)cc1 (stereo unspecified) was read as Mtb betalactam -7, RecA splice inh -0.3, Mtb growth -4% and Arbovirus anti -7.
Screening CCc1nnc(NC(=O)c2nc(Cl)ccc2Cl)s1 returned Mtb betalactam 3 and RecA splice inh 8.1.
Screening O=C(CNC(=S)N(CCCN1CCOCC1)Cc1cccs1)NCc1ccccc1 returned Mtb betalactam -3 and RecA splice inh -3.7.
CCC1(c2ccccc2)NC(=O)N(CC(=O)Nc2ccc(S(=O)(=O)NC3=NCCCCC3)cc2)C1=O (stereo unspecified) was read as Mtb betalactam 18 and RecA splice inh -4.0.
Screening CC(CP(=O)(O)O)NC(=O)Cc1ccccc1 (stereo unspecified) returned Mtb betalactam -4, YopH inh -14, RecA splice inh -1.4, Mtb growth -13% and Arbovirus anti 3.
`CCN1CCN(C(CNS(=O)(=O)c2ccc(Cl)cc2)c2ccccc2)CC1` (stereo unspecified) gave Mtb betalactam 5 and RecA splice inh 0.9.
Screening CCc1nc(N2CCC(C)CC2)c2oc3ccccc3c2n1 returned Mtb betalactam 93, YopH inh 6, RecA splice inh 15, Mtb growth 22% and Arbovirus anti -23.
`O=C(c1ccco1)n1nc(-c2ccco2)nc1SCc1ccccc1` gave Mtb betalactam 82, YopH inh -29, RecA splice inh 6.7, Mtb growth -5% and Arbovirus anti -4.
For O=C(O)c1cc(C(=O)O)c(-c2ccccc2)c(C(=O)O)c1 the results were Mtb betalactam -3, YopH inh -36, RecA splice inh -1.0, Mtb growth -6% and Arbovirus anti 9.
Screening COc1ccc(NC(=S)NNC(=O)CNc2ccc(Cl)cc2)cc1 returned Mtb betalactam -3, RecA splice inh -1.8, Mtb growth 0% and Arbovirus anti -3.
Screening COc1cc(C(CC(=O)Nc2cc(C)ccn2)N2Cc3ccccc3C2=O)cc(OC)c1OC (stereo unspecified) returned Mtb betalactam -4 and RecA splice inh -0.3.
For CN1CCN(S(=O)(=O)c2cccc(C(=O)Nc3cccc([N+](=O)[O-])c3)c2)CC1 the results were Mtb betalactam -2 and RecA splice inh 0.3.
CN(Cc1ccccc1)C(=O)COC(=O)c1ccc2ccccc2n1 was read as Mtb betalactam 13, RecA splice inh -1.4, Mtb growth -1% and Arbovirus anti 3.

2 entries drawn at random from the list so far, as already listed:
O=C1NN(c2ccccc2)C(=O)/C1=C/c1ccc(Sc2cccc3ccccc23)o1 was read as Mtb betalactam 25, YopH inh -32, RecA splice inh -0.5, Mtb growth 25% and Arbovirus anti -42.
For O=C(O)c1cc(C(=O)O)c(-c2ccccc2)c(C(=O)O)c1 the results were Mtb betalactam -3, YopH inh -36, RecA splice inh -1.0, Mtb growth -6% and Arbovirus anti 9.

Next part
Screening CCn1nc(C(=O)Nc2nc3ccccc3[nH]2)c2ccccc2c1=O returned Mtb betalactam 9, YopH inh -33, RecA splice inh -4.7, Mtb growth -2% and Arbovirus anti -5.
`CC(=O)Oc1ccc(-c2cccc(C(=O)NCCO)c2)cc1` gave Mtb betalactam -2, RecA splice inh 3.2, Mtb growth 4% and Arbovirus anti -2.
`COC(=O)CSc1ncc(C#N)c(N)n1` gave Mtb betalactam 3, YopH inh -39, RecA splice inh 1.5, Mtb growth -12% and Arbovirus anti -2.
Screening Oc1[nH]c2ccc(Br)cc2c1N=NC(=S)Nc1ccc(F)cc1 returned Mtb betalactam 1, RecA splice inh 20 and Mtb growth 15%.
Screening c1ccc(-c2ccccc2OCCN2CCOCC2)cc1 returned Mtb betalactam 4, YopH inh -27, RecA splice inh 0.7, Mtb growth 5% and Arbovirus anti 8.
Screening CCOc1cc(S(=O)(=O)n2nc(C)cc2C)ccc1F returned Mtb betalactam 8, YopH inh -4, RecA splice inh 1.5, Mtb growth -5% and Arbovirus anti -3.
For O=C(CS(=O)(=O)c1cn(CC(=O)N2CCOCC2)c2ccccc12)Nc1ccccc1F the results were Mtb betalactam -8 and RecA splice inh -0.1.
Screening CCN(C(=O)CN1C(=O)S/C(=C\c2ccc(Cl)cc2)C1=O)C1CCS(=O)(=O)C1 (stereo unspecified) returned Mtb betalactam 7 and RecA splice inh -1.2.
Screening O=C(N=C1SC2CS(=O)(=O)CC2N1c1ccc(F)cc1)C1CCCCC1 (stereo unspecified) returned Mtb betalactam 4 and RecA splice inh -1.0.
Screening O=C1C(=O)N(CCCN2CCOCC2)C(c2ccc(Cl)cc2)/C1=C(\O)c1ccc2c(c1)OCCO2 (stereo unspecified) returned Mtb betalactam 7 and RecA splice inh 0.8.
S=c1[nH]nc(-c2ccncc2)n1/N=C/c1cn(-c2ccccc2)nc1-c1ccccc1 was read as Mtb betalactam -3 and RecA splice inh 0.3.
`O=S(=O)(c1ccccc1)C(/C=N\O)/C=C/c1ccccc1` (stereo unspecified) gave Mtb betalactam 5, RecA splice inh 0.0 and Arbovirus anti 4.
c1ccc(CCCOCCC2CO2)cc1 (stereo unspecified) was read as Mtb betalactam -4 and RecA splice inh -0.7.
For CC1CN(c2ccc([N+](=O)[O-])c(N3CCCCC3)c2)CCN1 (stereo unspecified) the results were Mtb betalactam 4 and Mtb growth -3%.
Screening Cc1ccc(N2CS(=O)(=O)/C(=C/N(C)C)C2=O)cc1 returned Mtb betalactam -16, YopH inh -37, RecA splice inh -0.3 and Arbovirus anti -1.
`CCC(C)(C(=O)NC1CCCC1)N(Cc1cccs1)C(C)=O` (stereo unspecified) gave Mtb betalactam -12, YopH inh -18, RecA splice inh -0.5, Mtb growth -10%, Arbovirus anti 9 and Arbovirus anti repeat 1.
For COc1cc(/C=C2\SC(c3ccc(C)cc3)=NC2=O)cc(OC)c1OC the results were Mtb betalactam 6, YopH inh -35, RecA splice inh 0.1, Mtb growth -4% and Arbovirus anti -13.
For Cn1c(=O)oc2cc(S(=O)(=O)NC3CCN(Cc4ccccc4)CC3)ccc21 the results were Mtb betalactam -5, YopH inh -32, RecA splice inh -0.4, Mtb growth -3%, Arbovirus anti 1 and Arbovirus anti repeat -4.
`O=S(=O)(c1ccc(Cl)nc1)N1CCCc2ccccc21` gave Mtb betalactam -3, YopH inh -23, RecA splice inh -0.5, Mtb growth 4% and Arbovirus anti 1.
For COc1ccc(-n2c(-c3ccc(Br)cc3)c[n+]3c2CCC3)cc1 the results were Mtb betalactam -3, RecA splice inh 3.6, Mtb growth 2% and Arbovirus anti 0.

Entries shown so far that contain a thiophene ring, fused or not, in the order listed:
Screening O=C(CNC(=S)N(CCCN1CCOCC1)Cc1cccs1)NCc1ccccc1 returned Mtb betalactam -3 and RecA splice inh -3.7.
`CCC(C)(C(=O)NC1CCCC1)N(Cc1cccs1)C(C)=O` (stereo unspecified) gave Mtb betalactam -12, YopH inh -18, RecA splice inh -0.5, Mtb growth -10%, Arbovirus anti 9 and Arbovirus anti repeat 1.

Entries shown so far that have a COOH group (two):
Screening NC(CC(=O)O)C1CCCCC1 (stereo unspecified) returned Mtb betalactam -5, RecA splice inh -1.0, Mtb growth 1% and Arbovirus anti 0.
For O=C(O)c1cc(C(=O)O)c(-c2ccccc2)c(C(=O)O)c1 the results were Mtb betalactam -3, YopH inh -36, RecA splice inh -1.0, Mtb growth -6% and Arbovirus anti 9.

Carrying on:
CN1C(=O)/C(=C/c2ccco2)SC1=Nc1cccc(C(=O)O)c1 was read as Mtb betalactam 0, RecA splice inh 3.2, Mtb growth -6% and Arbovirus anti -3.
For Cc1ccc(-c2cc(C(=O)NCCCN3CCOCC3)c3ccccc3n2)cc1 the results were Mtb betalactam -2 and RecA splice inh -11.
Screening O=C(/C=C/c1ccco1)N1CCc2ccccc21 returned Mtb betalactam -1, RecA splice inh 9.5, Mtb growth -8% and Arbovirus anti -4.
Screening N#CC1=C(N)OC(c2ccccc2)=C(C#N)C1c1ccc2c(c1)OCO2 (stereo unspecified) returned Mtb betalactam -7, YopH inh 9, Mtb growth -6% and Arbovirus anti -7.
Screening O=c1[nH]c(CNCc2cccnc2)nc2ccccc12 returned Mtb betalactam 1, RecA splice inh -0.7, Mtb growth -10% and Arbovirus anti 1.
`COc1ccccc1N=Cc1c(O)c2ccccc2oc1=O` gave Mtb betalactam -1, YopH inh -16, RecA splice inh -1.1, Mtb growth 1% and Arbovirus anti 8.
Screening NC(=O)c1ccc(-n2nnnc2SCC(=O)Nc2ccccc2F)cc1 returned Mtb betalactam 5 and RecA splice inh 1.0.

Only part of the results is shown (hit frequency here may not be typical).
